# D2 ag = activates the human D2 dopamine receptor; P14416; DiscoveRx PathHunter D2 beta-arrestin, luminescence, 90 min; 100% = 57 uM dopamine signal; activation, % (test concentration not listed); actives 0.084% (n = 360,000); AID 624465; in the data active = activation above about 40%; inconclusive = about 15% to 40%; inactive = below about 15%; note: compound concentration not given in the record; the text of the record calls up to 30% inactive
# Target sequence (P14416 whole entry, looked up): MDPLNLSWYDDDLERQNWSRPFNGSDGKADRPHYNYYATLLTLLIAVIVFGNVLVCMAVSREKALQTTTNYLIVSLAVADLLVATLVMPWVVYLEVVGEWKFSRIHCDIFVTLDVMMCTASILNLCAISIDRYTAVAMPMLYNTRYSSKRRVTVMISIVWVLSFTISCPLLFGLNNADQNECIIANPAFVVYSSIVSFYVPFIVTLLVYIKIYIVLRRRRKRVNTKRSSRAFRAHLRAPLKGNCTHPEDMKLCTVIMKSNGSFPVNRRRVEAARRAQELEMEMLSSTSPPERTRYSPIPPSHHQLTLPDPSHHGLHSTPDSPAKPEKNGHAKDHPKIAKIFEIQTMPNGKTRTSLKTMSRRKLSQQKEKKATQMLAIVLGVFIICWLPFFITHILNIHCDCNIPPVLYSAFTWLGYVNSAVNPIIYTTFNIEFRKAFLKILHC
#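 Agonist mode: compounds alone added to overnight-plated D2 PathHunter cells for 90 min at 37 C, with 57 uM final dopamine (EC100) defining full response. Beta-arrestin recruitment detected by chemiluminescent reagent, read after 1 h at ambient temperature.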
# Sfp inh = blocks B. subtilis Sfp PPTase activity; Q9F4F7; Biochemical Sfp PPTase activity, qHTS; Potency, µM, inactives show max response, negative = inhibition, usual class: inhibitors; actives 3.5% (n = 310,000); active = well fitted inhibition curve with a large enough effect; inconclusive = small, poorly fitted or top-dose-only effect, or another doubt; inactive = no such curve, though single readings can be large or run the other way;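 note: the enzyme is Sfp with the accession as filed and its product quenches rhodamine fluorescence; potency is the fitted concentration of half-maximal effect; 0% = enzyme reaction without inhibitor and -100% = no enzyme wells; top concentration of the series not given in the record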
#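 Buffer: 50 mM Hepes-Na pH 7.6, 10 mM MgCl2, 0.01% Nonidet P-40, 0.01% BSA. Enzyme 15 nM, pre-exposed to compound 15 min; substrates then added and fluorescence change tracked over 30 min.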
# Menin MLL FP FL = inhibitors of human menin-MLL interaction, wild-type MLL peptide | Fluorescence polarization, fluorescein-MLL peptide displacement from menin | FP activity change, % at 61.4 µM | 290,000 tested, under 10 active; inconclusive = falling polarisation curve, or a change in total fluorescence; inactive = total fluorescence flat and polarisation flat or rising; no compound was filed as active; the % refers to the polarisation; negative = inhibition;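 note: % of control where 0% means no effect; inhibitors lower the polarisation; unlabelled MLL peptide was the positive control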
# gsp antag = gsp mutant antagonism | gsp-mutant cells, cAMP HTRF, 30 min; control for the full effect not named in the record | Potency, µM (highest dose often 76.9 µM), for the others: at the highest dose activity change, negative = inhibition, actives largely listed as inhibitors | actives 0.4% (n = 340,000); active = falling curve of any shape with a large fitted effect; inconclusive = falling curve, mostly with a smaller effect; inactive = flat or rising curve; cell line not stated here;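 note: intracellular cAMP measured with PDE inhibitor Ro 20-1724 present during compound exposure; potency is the fitted concentration of half-maximal effect; % is set by controls: 0 for no effect and ±100 for the full control effect; nearly all actives have a fitted effect of over 65% in size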
#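 HTRF cAMP measurement after 30 min RT detection following 30 min, 37C compound treatment alongside […] (added as 300 uM solution) in G418-selected cells seeded at 2000/well and grown 16–24 h.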
# ClpP mod = qHTS Assay for Activators of ClpP | Potency, µM (titrated, usually from 57.5 µM), without a hit: top-dose activity change, negative = active | actives 1.9% (n = 340,000) | AID 651965, 2013 | ATP-dependent Clp protease proteolytic subunit (Bacillus subtilis (strain 168)), P80244 | purified B. subtilis ClpP, FRET peptide cleavage, 20 min; active = well fitted falling curve with a large enough effect; inconclusive = small, poorly fitted or top-dose-only effect; inactive = no such curve, though single readings can be large or run the other way; note: potency is the fitted concentration of half-maximal effect; the source files actives as falling curves though it sought activators and does not explain the sign; nearly all actives have a fitted effect of over 65% in size; many hits overshoot -100%
# Target sequence (P80244 whole entry, looked up): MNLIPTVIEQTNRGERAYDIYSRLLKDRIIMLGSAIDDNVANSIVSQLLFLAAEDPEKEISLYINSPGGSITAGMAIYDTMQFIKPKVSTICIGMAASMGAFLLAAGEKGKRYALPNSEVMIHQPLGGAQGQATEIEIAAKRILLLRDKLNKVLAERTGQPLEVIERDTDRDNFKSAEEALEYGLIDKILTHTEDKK
#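 FRET quenching reversal measured ClpP activation: 10 microg/mL B. subtilis ClpP at pH 8 with the FRET-FV decapeptide, read at 430 nm after 320 nm excitation. The 20-min minus 0-min signal was scaled between DMSO/no-enzyme wells and ADEP (5.8 microM final).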
# PINK1 expr mod = modulators of PINK1 expression. PINK1 immunofluorescence, high-content cytometry, 24 h. Potency, µM (top dose mostly 76.6 µM), for the others: at the highest dose activation (PINK1 increase), actives largely listed as activators. actives 0.2% (n = 410,000). AID 624263; active = well fitted activation curve with a large enough effect; inconclusive = small, poorly fitted or top-dose-only effect; inactive = flat fitted curve, though single readings scatter; cell line not stated here;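 note: potency is the fitted concentration of half-maximal effect; % of control where 0% means no effect; nearly all actives have a fitted effect of over 65% in size; a mitochondrial uncoupler was the plate control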
#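 Fluorescence from anti-PINK1 antibody, together with nuclear and cell stains, was scanned on a laser-scanning cytometer. Before staining, stable-line cells were incubated 24 hours with compounds at 5 concentrations; primary antibody 12 h at 10 degrees C.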
# gsp agonist = agonists of gsp mutant (McCune-Albright syndrome); gsp mutant cells, cAMP HTRF, 30 min; control for the full effect not named in the record; Potency, µM (doses to about 76.9 µM), without a hit: at the highest dose activation (cAMP increase), actives largely listed as activators; actives 0.13% (n = 340,000); AID 624287; active = well fitted activation curve with a large enough effect; inconclusive = small, poorly fitted or top-dose-only effect, or another doubt; inactive = no such curve, though single readings can be large or run the other way; cell line not stated here;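 note: phosphodiesterase inhibitor Ro 20-1724 added with compounds to block cAMP breakdown; potency is the fitted concentration of half-maximal effect; nearly all actives have a fitted effect of over 60% in size; about a fifth of the inactives were tested at one dose only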
#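 Cells in DMEM/10% FBS with G418 were pretreated with compounds in DMSO plus […] (300 uM stock) for 30 min at 37C. cAMP was measured by HTRF (cAMP-d2 plus anti-cAMP antibody-K) after 30 min at room temperature.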
# The depositor's hits bear a star; ? = inconclusive; nt = not tested or not shown; [ ] = remark or other dose.
# Sample of the layout (8 entries):
No.	Structure	D2 ag	Sfp inh	Menin MLL FP FL	gsp antag
1	Cc1sc(NC(=O)C2CC(Cl)=CCC2C(=O)O)c(C#N)c1C (stereo not drawn)	-2.1	26%	-7.6	?
2	N#Cc1ccccc1C[C@H](N)C(=O)NC[C@H]1O[C@@H](n2cnc3c(N)ncnc32)[C@H](O)[C@@H]1O	-2.2	nt	nt	nt
3	CC1CN(c2ccc([N+](=O)[O-])cc2C#N)CC(C)O1 (stereo not drawn)	1.7	2%	4.8	-5%
4	Oc1ccccc1Oc1ncc(Br)c(Cl)n1	-3.3	-5%	-8.9	7%
5	Cc1ccc(S(=O)(=O)N2CCOCC2)cc1C(=O)OC1CCOC1=O (stereo not drawn)	-4.4	nt	nt	12%
6	NS(=O)(=O)c1ccc(CCNCc2cc(Br)ccc2OCc2ccccc2F)cc1	0.3	50µM*	-5.4	-11%
7	CC(=O)CSc1ncnc2c1cnn2-c1ccccc1	-1.0	21%	2.3	0%
8	CCCCNC(=S)NNC(=O)c1c(C)nc2ccccn12	-7.5	4%	3.2	3%

No.	ClpP mod	PINK1 expr mod	gsp agonist
1	nt	0.0%	-2%
2	0.0%	4.1%	nt
3	nt	-2.9%	-19%
4	-2.1%	-0.7%	7%
5	-0.3%	1.1%	0%
6	nt	-1.0%	0%[15.4 µM]
7	-1.2%	-2.2%	-18%
8	-1.3%	-0.2%	2%[15.4 µM]

# Results (from the top)
No.	Structure	D2 ag	Sfp inh	Menin MLL FP FL	gsp antag
1	Cc1sc(NC(=O)C2CC(Cl)=CCC2C(=O)O)c(C#N)c1C (stereo not drawn)	-2.1	26%	-7.6	?
2	N#Cc1ccccc1C[C@H](N)C(=O)NC[C@H]1O[C@@H](n2cnc3c(N)ncnc32)[C@H](O)[C@@H]1O	-2.2	nt	nt	nt
3	CC1CN(c2ccc([N+](=O)[O-])cc2C#N)CC(C)O1 (stereo not drawn)	1.7	2%	4.8	-5%
4	Oc1ccccc1Oc1ncc(Br)c(Cl)n1	-3.3	-5%	-8.9	7%
5	Cc1ccc(S(=O)(=O)N2CCOCC2)cc1C(=O)OC1CCOC1=O (stereo not drawn)	-4.4	nt	nt	12%
6	NS(=O)(=O)c1ccc(CCNCc2cc(Br)ccc2OCc2ccccc2F)cc1	0.3	50µM*	-5.4	-11%
7	CC(=O)CSc1ncnc2c1cnn2-c1ccccc1	-1.0	21%	2.3	0%
8	CCCCNC(=S)NNC(=O)c1c(C)nc2ccccn12	-7.5	4%	3.2	3%
9	CCCCn1c(N)c(N(CC(C)C)C(=O)c2c(CC)noc2C)c(=O)[nH]c1=O	-1.7	nt	nt	-11%
10	CC(C)(C)NC(=O)CN(C(=O)CS(=O)CC(=O)Nc1ccc(F)cc1)c1ccc(Cl)cc1 (stereo not drawn)	-2.0	27%	-2.4	-6%
11	CS(=O)(=O)Nc1ccc(C(=O)N2CCN(c3ccccc3F)CC2)cc1	-1.9	1%	3.3	3%
12	Cc1ccc(N=C2NC(=O)/C(=C/c3cccn3C)S2)cc1C	-5.7	14%	11	-2%

No.	ClpP mod	PINK1 expr mod	gsp agonist
1	nt	0.0%	-2%
2	0.0%	4.1%	nt
3	nt	-2.9%	-19%
4	-2.1%	-0.7%	7%
5	-0.3%	1.1%	0%
6	nt	-1.0%	0%[15.4 µM]
7	-1.2%	-2.2%	-18%
8	-1.3%	-0.2%	2%[15.4 µM]
9	-2.3%	0.4%	-2%[15.4 µM]
10	0.4%	4.1%[38.3 µM]	13%
11	-0.3%	2.8%[38.3 µM]	-29%
12	nt	?	-11%[15.4 µM]

# Carrying on:
No.	Structure	D2 ag	Sfp inh	Menin MLL FP FL	gsp antag
13	CSc1nc(-c2ccc(F)cc2)cc(=O)[nH]1	0.8	2%	1.4	11%
14	COc1cccc2sc(NNC(=O)c3nc4ccccc4s3)nc12	-1.1	?	3.8	-11%
15	CCOC(=O)C1=C[C@@H](CC)N(S(=O)(=O)c2ccccc2)[C@H]1c1ccccc1	1.6	nt	nt	nt
16	O=C(NC1CCN(C(=O)Nc2ccc(F)cc2)CC1)c1ccccc1F	5.9	7%	7.1	8%
17	CCOC(=O)Nc1ccc2c(c1)N(C(=O)N1CCN(C)CC1)c1ccccc1CC2	-3.4	2%	0.8	9%
18	O=C(NCc1ccco1)c1ccc2c(=O)n(CCC3=CCCCC3)c(=O)[nH]c2c1	1.0	10%	3.6	15%
19	Cc1ccnc(NC(=O)CCC(=O)N(CC(=O)NCCc2ccccc2)Cc2ccco2)c1	-3.8	6%	1.1	-9%
20	CC(=O)Nc1cccc(/C(C)=N/Nc2nc3ccccc3s2)c1	0.7	-2%	1.2	-13%
21	Cc1ccc(/C=N/NC(=O)C(NC(=O)c2ccccc2)c2n[nH]c(=O)c3ccccc23)cc1 (stereo not drawn)	-6.7	-3%	4.9	-7%
22	Cc1cc(NC(=O)Cn2nnc(-c3ccccc3NC(=O)c3ccccc3F)n2)no1	0.4	-4%	-2.6	nt
23	Cc1ccc(S(=O)(=O)NCCC(=O)NCCCSc2ccccc2)cc1	-2.9	nt	nt	-14%
24	COc1ccc(C(c2c(O)nc(SC)n(C)c2=O)c2c(O)nc(SC)n(C)c2=O)cc1O	1.1	50µM*	1.8	13%

No.	ClpP mod	PINK1 expr mod	gsp agonist
13	1.5%	-1.2%	-13%
14	1.8%	5.2%	-36%
15	1.3%	3.8%	nt
16	nt	-1.4%	-1%
17	-4.5%	-0.1%	7%
18	-13%	-0.5%	-3%
19	-2.9%	-0.6%	-2%
20	0.0%	4.6%	3%[15.4 µM]
21	-1.1%	3.5%	-26%
22	nt	2.2%	-3%[15.4 µM]
23	-4.2%	0.9%	-14%
24	1.3%	2.6%	-183%[inhibitor]

# The list continues.
No.	Structure	D2 ag	Sfp inh	Menin MLL FP FL	gsp antag
25	CCOC(=O)Nc1sc(NS(=O)(=O)c2ccccc2)nc1C	12	?	-0.8	1%
26	N#Cc1c(N)nc(N)nc1Nc1ccc(Br)cc1	1.3	13%	0.8	-3%
27	Cc1cc(Oc2ccccc2)nc(OCC#N)n1	1.0	-6%	4.2	1%
28	O=C(O)CCc1ccc(-c2ccc(Br)cc2)n1-c1cccc(O)c1	-2.0	-7%	0.4	-2%
29	Cc1ccc(-c2nc(NC(=O)c3nn(C)cc3[N+](=O)[O-])sc2C)cc1C	0.3	3%	3.2	1%
30	COc1ccccc1C(=O)NCCC(=O)N1CCN(S(=O)(=O)c2cccc(Cl)c2)CC1	-0.9	nt	nt	2%
31	CCCCCn1c(N(C)Cc2ccccc2)nc2c1c(=O)[nH]c(=O)n2C	0.7	?	-3.8	-3%
32	O=[N+]([O-])c1cc(Br)c2nsnc2c1N1CCOCC1	-0.1	-3%	-0.9	-9%
33	O=C1c2ccccc2NC(c2ccccn2)N1c1ccc(Cl)cc1 (stereo not drawn)	-2.1	-6%	1.0	-3%
34	CCCCNc1nc2ccccc2n1CC(=O)N1CCc2ccccc2C1	-5.7	12%	-5.2	3%
35	COc1ccc(CNC(=O)Cn2nnc(-c3ccc(NC(=O)C4CCCCC4)cc3)n2)cc1	-1.6	6%	5.3	7%
36	N#Cc1c2n(c(=S)n(-c3ccccc3[N+](=O)[O-])c1=O)CCCCC2	-3.2	?	2.0	-44%

No.	ClpP mod	PINK1 expr mod	gsp agonist
25	-1.0%	1.2%	-5%
26	nt	-0.7%	3%
27	-1.5%	1.2%	7%
28	-5.1%	-0.6%	12%
29	-2.6%	-1.5%	-60%[inhibitor]
30	2.1%	-0.9%	31%
31	2.2%	-0.3%	-10%
32	nt	0.3%	?
33	?	-1.8%	?
34	-0.2%	32%[38.3 µM]	30%
35	nt	7.3%	-12%
36	-0.2%	3.6%	5%[15.4 µM]

# (further entries)
No.	Structure	D2 ag	Sfp inh	Menin MLL FP FL	gsp antag
37	CCOC(=O)Cc1csc(NC(=S)NC(=O)c2cccc([N+](=O)[O-])c2)n1	-2.6	-34%	-1.9	-7%
38	CCOC(=O)c1sc(NC(C)=O)nc1C	-0.8	56µM*	-3.4	-1%
39	CCOc1cc(/C=N/NC(=O)Cn2nc([N+](=O)[O-])cc2C)cc(Br)c1OCc1ccccc1C	0.4	-19%	-2.5	-2%
40	Cc1ccsc1C(=O)NCC(=O)OCc1ccccc1	-3.3	14%	nt	-9%
41	CCOc1ccc(N2C(=O)Nc3ccccc3C2(O)C(=O)NCc2ccc(C)cc2)cc1 (stereo not drawn)	-4.3	21%	-1.1	16%
42	COC(=O)c1ccc(CNCC(O)COc2ccc(-c3ccccc3)cc2)cc1 (stereo not drawn)	-1.7	-7%	-1.2	9%
43	Cc1ccc(NC(=O)c2c([N+](=O)[O-])cnn2C)cc1C	-0.8	3%	0.1	-1%
44	CC1(C)N=C(N)N=C(N)N1c1cccc(CC(=O)Nc2ccccc2)c1	-5.8	nt	nt	nt
45	Cn1c(CNC(=O)c2ccc(F)cc2)nc2ccccc21	0.0	13%	-0.6	7%
46	NC(=O)c1ccc(NC(=O)Nc2ccc3c(c2)OCO3)cc1	2.4	18%	nt	2%
47	COc1ccc(OC)c(CN2CCN(C(=O)c3ccco3)CC2)c1	?	-29%	2.5	3%
48	COCc1nnc(NC(=O)CSc2ccc(C)cc2)s1	-0.7	-18%	5.3	-4%

No.	ClpP mod	PINK1 expr mod	gsp agonist
37	1.0%	2.1%	0%
38	-0.6%	-0.9%[38.3 µM]	?
39	-1.8%	15%[38.3 µM]	0%
40	-2.4%	0.3%	16%
41	nt	3.7%	3%[15.4 µM]
42	nt	5.7%	?
43	-0.1%	2.5%	-5%
44	-0.8%	-1.2%	-1%
45	-11%	0.4%	3%
46	0.0%	1.6%	-2%
47	?	-0.7%	-4%[15.4 µM]
48	-0.8%	0.2%[38.3 µM]	-7%
